From PubChem
RecA intein inh = blocks M. tuberculosis RecA intein splicing; inhibition, %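 (about 9 µM by stock and volumes)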; 290,000 compounds, 0.75% hits; cell-free RecA intein splicing, fluorescence; in the data active = inhibition above about 30%; inconclusive = no clear call, values can overlap the other calls;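 note: 0% = vehicle wells and 100% = reference inhibitor control wells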
Target sequence (P9WHJ3 whole entry, looked up): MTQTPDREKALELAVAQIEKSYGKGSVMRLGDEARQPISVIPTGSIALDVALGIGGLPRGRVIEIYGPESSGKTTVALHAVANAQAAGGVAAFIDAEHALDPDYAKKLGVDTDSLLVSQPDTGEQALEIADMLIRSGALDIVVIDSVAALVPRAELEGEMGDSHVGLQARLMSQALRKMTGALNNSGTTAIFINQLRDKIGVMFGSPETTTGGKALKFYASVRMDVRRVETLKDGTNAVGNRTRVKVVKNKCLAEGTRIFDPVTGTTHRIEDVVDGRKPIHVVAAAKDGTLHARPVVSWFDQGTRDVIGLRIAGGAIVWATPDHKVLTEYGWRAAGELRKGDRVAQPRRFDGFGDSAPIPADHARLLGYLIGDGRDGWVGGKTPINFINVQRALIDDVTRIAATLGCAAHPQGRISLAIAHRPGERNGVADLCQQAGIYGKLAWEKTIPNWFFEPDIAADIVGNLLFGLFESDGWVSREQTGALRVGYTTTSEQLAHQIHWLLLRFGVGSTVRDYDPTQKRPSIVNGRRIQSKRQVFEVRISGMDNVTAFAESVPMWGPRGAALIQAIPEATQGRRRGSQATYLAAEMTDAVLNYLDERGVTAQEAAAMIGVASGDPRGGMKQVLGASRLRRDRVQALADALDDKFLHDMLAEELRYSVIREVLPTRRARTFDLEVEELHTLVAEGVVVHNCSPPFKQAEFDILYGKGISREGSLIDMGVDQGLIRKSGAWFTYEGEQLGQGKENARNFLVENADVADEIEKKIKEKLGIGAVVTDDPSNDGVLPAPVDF
Mtb betalactam = beta-lactam sensitization of Mtb H37Rv; M. tuberculosis H37Rv growth with meropenem, percent inhibition; hits of this screen are not shown here; inhibition, % at 25 µM; 330,000 compounds, 0.27% hits;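 active = about 74% or more and at least 40 points above the plate without the antibiotic, then above 30% in a dose series; inconclusive = first-round hits that could not be retested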;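 note: growth measured after seven days incubation then overnight dye step; 0% = bacteria only wells and 100% = bacteria with antibiotic; twin plates without the antibiotic show which effects depend on it; some results filed as inactive read as strong as hits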
Arbovirus inh = arbovirus infection inhibition; arbovirus infection cell-based antiviral screen; inhibition, % at 10 µM; 200,000 compounds, 0.37% hits; AID 1251;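 active = inhibition from about 30%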;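 note: bluetongue infection of BSR cells; cell survival read as ATP light after 72 h; 0% = infected wells without compound and 100% = uninfected wells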
YopH PTP inh = YopH (Yersinia) phosphatase inhibition. fluorescence Ex485/Em525. inhibition, %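 (about 10 µM by stock and volumes)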. 140,000 compounds, 0.16% hits;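 active = inhibition of 50% or more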;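 note: controls were vehicle for no effect and minimum signal wells for full effect; inactives centre near -20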
Mtb growth = M. tuberculosis H37Rv growth inhibitors, H37Rv strain (AID 1626). M. tuberculosis H37Rv growth inhibition; higher % means a stronger effect. inhibition, % at 10 µM; hits with a dose series show IC50 in µM. 220,000 compounds, 0.95% hits;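 active = confirmed in a dose series; inconclusive = inhibition above 80% but not taken into the dose series; inactive = below 80% or under 30% at every dose of the series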;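 note: bacteria incubated seven days before Alamar blue readout; 0% = bacteria only wells and 100% = bacteria with antibiotic wells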
Arbovirus inh repeat = also measured in Arbovirus inh; calls as there; inhibition, %; measured here: 10K subset replicate screen; many hits read low in the repeat;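 first of two repeat runs on a subset; 0% = infected and 100% = uninfected wells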
* marks the source's active call; other numbers are inactive results; ? = inconclusive; . = no result given.

SMILES | RecA intein inh | Mtb betalactam | Arbovirus inh | YopH PTP inh | Mtb growth | others
O=C(Nc1ncn[nH]1)c1cc([N+](=O)[O-])ccc1Cl | 1.2 | 2 | . | . | .
O=C(OCC(=O)N1CCCC1)c1cc(F)c(F)cc1Cl | 2.7 | 89 | . | . | .
Cc1cc(C(=O)C(C)Sc2cccc[n+]2[O-])c(C)n1-c1ccc(Cl)cc1 (stereo not drawn) | 3.8 | -3 | 0 | . | ?
C/C(=N\NC(=O)c1ccc(C)cc1)c1c(C)[nH]n(-c2ccccc2)c1=O | -2.6 | 10 | . | . | .
COC(=O)CC1COc2ccccc2N1C(=O)c1cc(OC)c(OC)c(OC)c1 (stereo not drawn) | 1.0 | 2 | . | . | .
COc1ccc(/C=C(\C#N)C(=O)NC(C)c2ccccc2)cc1O (stereo not drawn) | 6.4 | -1 | . | . | .
COc1ccc(OC)c(NC(=O)NCc2cccnc2)c1 | -3.1 | -2 | . | . | .
CC(=O)Nc1ccc(NC(=O)CSc2nnc3c4ccccc4n(C)c3n2)cc1 | 0.7 | -1 | 15 | . | 0%
Cc1nc(C)c(-c2nnc(-c3ccccc3Cl)o2)cc1C(=O)NN | 1.8 | -18 | . | . | -5%
Cc1c(-c2ccco2)[n+](=O)c2c(n1[O-])CCC2 | 0.1 | -4 | 2 | -40 | -13%
COc1ccc(Cl)cc1C(=O)NNC(=S)NC1CCCC1 | 0.0 | -2 | -4 | . | 11%
CC(C)C[C@H](NC(=O)C1CCN(C(=O)[C@H](Cc2ccccc2)NC(=O)OC(C)(C)C)CC1)C(=O)O | 1.4 | -7 | . | . | .
O=C(Cc1c(O)c2ccccc2[nH]c1=O)NCc1ccccc1 | -2.4 | 2 | 6 | -12 | 0%
CC(=O)c1cccc(N(C(=O)Cn2nnc3ccccc32)C(C(=O)NCC2CCCO2)c2ccc(N3CCOCC3)cc2)c1 (stereo not drawn) | 1.4 | 0 | 3 | . | 1%
Cc1ccsc1/C=N/n1c(-c2ccco2)n[nH]c1=S | -3.8 | 0 | 11 | -30 | 1%
CCOC(=O)C1(C)NC(c2ccc(OC)cc2OC)C2C(=O)N(CC)C(=O)C21 (stereo not drawn) | 15 | 4 | 15 | . | -2%
Cc1cc(N2CCN(c3ccccc3)CC2)nc(N2CCOCC2)n1 | -0.6 | 1 | . | . | .
O=C1C(Cl)=C(N2CCOCC2)C(=O)N1CCc1ccccc1 | 0.5 | 6 | 3 | -28 | 1%
CC(C)C(=O)Nc1ccc(C(=O)NNC(=O)CCc2ccccc2)cc1 | 0.6 | 4 | -4 | -13 | 9%
COc1ccc(/C=N/OCC(=O)NCC(C)C)c(OC)c1 | 1.2 | -23 | 1 | . | 6%
Cc1ccccc1N1CCN(c2ncnc3c2cnn3Cc2ccc(Cl)cc2)CC1 | 1.9 | 99 | 1 | -8 | 16%
Cc1nn(Cc2ccc(Cl)cc2Cl)c(Cl)c1C(=O)NC1CCCc2ccccc21 (stereo not drawn) | -0.6 | 4 | 4 | -30 | 6%
CC(C)c1nc2n[nH]c(N)c2c2c1CCC2 | 1.9 | -1 | 7 | -38 | 19%
CC(=O)NCCNC(=O)c1ccc(CSc2nc3ccccc3s2)cc1 | 0.8 | 14 | . | . | .
CCOC(=O)c1[nH]c2ccc(F)cc2c1NC(=O)C1=COCCO1 | 2.5 | -2 | -5 | -20 | 0%
N#Cc1ccccc1S(=O)(=O)c1ccccc1C(=O)Nc1ccccc1 | -0.3 | -3 | 19 | . | 4%
CSCc1cc(N2CCOCC2)nc(SCc2ccc(Cl)c(Cl)c2)n1 | 11 | 6 | 11 | -31 | 8%
Cc1ccccc1Cc1ccc(Cl)nn1 | -2.4 | -11 | -1 | . | 5%
Cc1cc(=O)oc2cc(OC(C)C(=O)O)c(Cl)cc12 (stereo not drawn) | -3.1 | -4 | 4 | -44 | 0%
COc1ccc(Cl)cc1NC(=O)c1ccc2c(SCC(=O)O)c3c(nc2c1)CCCC3 | 1.4 | -9 | . | . | .
O=C(COc1ccc(S(=O)(=O)NC2CCCCC2)cc1Cl)Nc1ccc2c(c1)OCO2 | 0.1 | -5 | -4 | -16 | 3%
O=C(NCCC1CC1(Cl)Cl)Nc1ccccc1 (stereo not drawn) | 2.3 | -3 | . | . | -4%
Cc1ccccc1OCCC(=O)OCC(=O)N(C)c1c(N)n(Cc2ccccc2)c(=O)[nH]c1=O | 0.1 | -7 | . | . | .
NS(=O)(=O)c1ccc(CNC(=O)NC2(c3ccccc3)CC2)cc1 | -0.5 | -5 | 1 | -25 | 1% | Arbovirus inh repeat=3
Cc1ccc(N(CC(O)CN2CCOCC2)S(=O)(=O)c2ccc3ccccc3c2)cc1 (stereo not drawn) | 1.3 | -6 | -23 | -17 | 7%
O=C(CC1C(=O)NCCN1CC(c1ccccc1)c1ccccc1)NC1CC1 (stereo not drawn) | 1.7 | -1 | 0 | . | 2%
CN1CCN(C(=S)NC(=O)c2ccccc2Cl)CC1 | -0.7 | -6 | . | . | .
CCCOC(=O)c1ccc(Oc2c(-c3ccc(OCC)cc3O)n[nH]c2C)cc1 | 17 | 4 | -44 | -7 | -3%
O=C1C(=O)c2ccc(-c3ccccc3)cc2-c2ccccc21 | 8.0 | 100 | -38 | 77* | 1.5µM*
COC(=O)c1ccc(NC(=S)NNC(=O)CC(C)C)cc1 | -2.5 | 5 | -8 | -26 | 0%
CC(=O)n1c(C=Nc2ccccc2)c(O)c2ccccc21 | -25 | 83 | -8 | . | 12%
Fc1cccc(F)c1/C=C/c1ccc2ccccc2n1 | 3.1 | 8 | 0 | -6 | 8%
CN(C)c1ccc(N=c2sc3ccccc3n2C)cc1 | -1.7 | 1 | -24 | -20 | 1%
COc1ccc(NC(=O)C2C3C=CC(C3)C2C(=O)NCc2ccco2)cc1 (stereo not drawn) | 8.2 | 13 | 0 | -37 | -5%
COc1ccc(Cn2nnnc2C(c2cccs2)N2CCCCCC2)cc1 (stereo not drawn) | 7.9 | 1 | -17 | 5 | 6%
O=C(NCCOc1ccccc1F)c1cc(F)c(F)cc1Cl | 1.0 | 11 | -9 | -22 | 7%
COc1ccc(S(=O)(=O)CCC(=O)O)cc1 | . | -5 | 1 | -32 | -8%
CCCCC(=O)Nc1cnc(NC(=O)c2cccs2)cc1C | 0.5 | -6 | . | . | .
O=C(NCCCCc1ccccc1)C1CC(c2ccccc2C(F)(F)F)=NO1 (stereo not drawn) | 5.0 | -5 | . | . | -1%
O=C(NCCCN1CCOCC1)c1ccc2c(c1)N(Cc1cccc(Cl)c1)C(=O)CS2 | 0.1 | -3 | . | . | .

Later entries:
SMILES | RecA intein inh | Mtb betalactam | Arbovirus inh | YopH PTP inh | Mtb growth | others
CCN(CC(=O)NCc1ccc(F)cc1)Cc1nc2cc(Cl)ccc2c(=O)[nH]1 | . | 0 | -9 | -22 | 1%
COc1cc2c(cc1OC)C1=NC(=O)CN1C(SCc1ccccc1C)=N2 | 2.2 | -1 | -6 | -31 | -1%
COc1ccc(NC(=O)CCC(=O)c2cccs2)cc1Cl | -0.2 | 93 | . | . | .
CCOC(=O)/C=C1/N(C)c2ccccc2C1(C)C | 0.6 | 1 | . | . | -5%
Cn1c(CSc2ncccn2)nnc1SCC(=O)N1CCCCC1 | 0.5 | 3 | 3 | -17 | -1%
COc1ccccc1C(=O)Nc1ccccc1C(=O)Nc1ccccc1 | -1.3 | -4 | . | . | .
CN=c1scc(-c2cccs2)n1/N=C/c1ccc(O)c(O)c1O | 17 | 3 | -13 | -10 | 31%
O=C(NCCc1ccccc1)c1cc(=O)c2ccccc2o1 | -1.3 | 4 | 3 | . | -2%
CCCCCCNc1cc(C)oc(=O)c1C(C)=O | 1.1 | -5 | 0 | -33 | 4%
CC(C)N1CCc2c(sc(NC(=O)Cc3ccccc3)c2C#N)C1 | -43 | 2 | . | . | .
O=C(NC1CCCCC1)C(c1ccncc1)N(Cc1ccc2c(c1)OCO2)C(=O)C(F)(F)F (stereo not drawn) | -10 | -7 | -2 | -21 | -6%
CCOc1ccc(-n2nnnc2SCC(=O)NC2CCCC2)cc1 | -0.9 | 39 | . | . | .
c1ccc(Oc2nnc(-c3cccs3)c3ccccc23)cc1 | 12 | 5 | -10 | -17 | 13%
CC(=O)n1cc([C@@H]2C=C(C(=O)N3CCN(C)CC3)O[C@H](OCc3ccc(CO)cc3)C2)c2ccccc21 | 1.7 | 0 | . | . | -10%
COc1ccccc1Nc1nc(C2(C)CCC(=O)O2)cs1 (stereo not drawn) | -3.3 | -5 | 2 | -26 | -1%
CCOc1ccc(CN2CCN(C3CCSCC3)CC2CCO)cc1 (stereo not drawn) | -1.3 | 1 | 7 | . | 5%
COCCNCCCCOc1ccc(C)cc1[N+](=O)[O-] | 0.3 | 6 | -8 | -26 | -8%
COc1cc(-c2cc(C(=O)Nc3ccc(N4CCOCC4)cc3)c3ccccc3n2)cc(OC)c1OC | -0.9 | -4 | . | . | -11%
Cc1ccc(S(=O)(=O)N(CC(=O)c2ccc(Cl)cc2)C(=O)N2CCN(C)CC2)cc1 | 2.8 | 0 | . | . | .
COc1ccc(Cc2noc(CN(C)Cc3cccc(-n4cccn4)c3)n2)cc1OC | -1.1 | -6 | -1 | . | 3%
C=CCN=C1CC(C)(C)CC(=O)/C1=C(\O)c1ccccc1 | 2.5 | 5 | 2 | -29 | 0%
Cc1cccc(NS(=O)(=O)c2ccc3c(c2)NC(=O)CO3)c1C | -1.0 | 7 | . | . | .
CC(C)c1ccc(C(=O)CSc2ncn[nH]2)cc1 | -4.2 | -4 | 10 | -10 | -3%
Cc1nnc(SCc2cccc([N+](=O)[O-])c2)o1 | . | -4 | 5 | . | -6%
COc1ccc(CC2(CO)CCN(Cc3cnn(-c4ccccc4)c3)CC2)cc1 | 2.5 | -11 | -13 | . | -3%
O=C(CCNS(=O)(=O)c1ccc(Cl)cc1)N1CCCCCC1 | 1.1 | 5 | . | . | .
CCC(C)C1C(C#N)=C(N)OC2=C1C(=O)CC(C)(C)C2 (stereo not drawn) | 0.5 | 4 | -1 | -34 | 4% | Arbovirus inh repeat=2
O=C(Nc1nnc(SCC(=O)N2CCOCC2)s1)c1ccccc1Cl | -2.6 | 25 | 6 | -46 | -7%
CCOC(=O)c1nc[nH]c1C | 0.4 | . | 4 | -16 | -5%
COc1ccc(C(c2c(O)cc(C)oc2=O)c2c(O)cc(C)oc2=O)cc1 | -1.5 | -5 | -3 | -1 | -8%

The list goes on, starting with the last 6 of the part before.
SMILES | RecA intein inh | Mtb betalactam | Arbovirus inh | YopH PTP inh | Mtb growth | others
COc1ccc(CC2(CO)CCN(Cc3cnn(-c4ccccc4)c3)CC2)cc1 | 2.5 | -11 | -13 | . | -3%
O=C(CCNS(=O)(=O)c1ccc(Cl)cc1)N1CCCCCC1 | 1.1 | 5 | . | . | .
CCC(C)C1C(C#N)=C(N)OC2=C1C(=O)CC(C)(C)C2 (stereo not drawn) | 0.5 | 4 | -1 | -34 | 4% | Arbovirus inh repeat=2
O=C(Nc1nnc(SCC(=O)N2CCOCC2)s1)c1ccccc1Cl | -2.6 | 25 | 6 | -46 | -7%
CCOC(=O)c1nc[nH]c1C | 0.4 | . | 4 | -16 | -5%
COc1ccc(C(c2c(O)cc(C)oc2=O)c2c(O)cc(C)oc2=O)cc1 | -1.5 | -5 | -3 | -1 | -8%
CCCC(c1nnnn1Cc1ccc(OC)cc1)N1CCN(c2ccccc2)CC1 (stereo not drawn) | -11 | . | -3 | -26 | 0%
COc1ccc(C(=O)NCC2(N3CCCCC3)CCCCC2)cc1S(=O)(=O)N(C)C | 2.1 | 4 | . | . | .
CC(=O)Nc1ccc(S(=O)(=O)N2CCN(c3cc(C)nc4ncnn34)CC2)cc1 | -3.6 | -4 | 0 | . | -2%
COc1ccc([C@@H]2[C@@H]3C(=O)N(C(C)(C)C)C(=O)[C@@H]3[C@]3(Cc4ccccc4)C(=O)N(c4ccc(OC)cc4)C(=O)N23)cc1 | -5.5 | -8 | . | . | .
Cc1ccnc(NS(=O)(=O)c2ccc(NC(=O)Cc3ccc(Br)cc3)cc2)n1 | -1.4 | 7 | . | . | .
S=C(NCc1ccco1)NC1CCCc2ccccc21 (stereo not drawn) | 3.2 | -1 | 6 | . | 3%
COc1ccc(CCn2c(=N)c(C(=O)NC3CCCCC3)cc3c(=O)n4ccccc4nc32)cc1 | -1.9 | 20 | . | . | .
C=CCn1c(=O)c2ccccc2n2c(SCC(=O)c3ccccc3)nnc12 | 2.8 | -16 | -4 | -14 | 7%
CCc1c(C(=O)Nc2cc(C(=O)OC)ccc2C)csc1C | -0.3 | 2 | . | . | .
COc1cccc(C2=NOC(C(=O)Nc3cc(C)nn3-c3ccccc3)C2)c1OC (stereo not drawn) | 3.0 | -2 | -8 | -32 | 2% | Arbovirus inh repeat=-12

Some of the compounds tested; count on the stated rates, not on these rows.
